# Screens (PubChem)
# Sa RN4220 lethal – S. aureus RN4220 growth inhibition | OD600, 16 h | inhibition, % (no concentration beside the values) | 330,000 tested, 0.33% active;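 active means z-score of -3 or lower and OD600 up to 0.18 on both plates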;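 further: plate controls were untreated cells for no effect and reference antibiotic for full effect; stock transfer was 100 nL into about 80 µL; one replicate is shown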
# Autofluor counter – compound fluorescence in toxin protease inhibitor counterscreen; compound autofluorescence counterscreen, microsphere flow cytometry; active compounds read high; fluorescence intensity (test concentration not listed); 360,000 tested, 3.1% active; AID 624483;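 active means at least 3 SD above the mean of all compounds, about 16000 in these data; inconclusive means too few beads counted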;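 further: 100 nL of 1 mM stock went into each well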
# ugtP null kill – kills S. aureus RN4220 lacking UgtP | AID 1259309 | growth inhibition, % (test concentration not listed) | S. aureus RN4220 ugtP deletion, OD600 growth, 16 h; some inactives read as strong as hits | 330,000 tested, 0.54% active;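 active means z-score under -3 and OD600 up to 0.15 on both plates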;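 further: plate controls were untreated wells for no effect and antibiotic for full effect; wells of about 80 µL received 100 nL stock; the first replicate is given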
# PrP 5UTR inh – inhibition of PrP 5' UTR reporter expression; cell-based PrP 5' UTR mRNA reporter, plate reader; inhibition, % (no concentration beside the values); 340,000 tested, 0.35% active; AID 488862;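 active means every replicate at 50% or more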;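 further: 0 = median of the neutral control wells; tested in H4 reporter cells; numbers are from one replicate; inactives centre near -14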
# BJeLR lethal – kills HRASV12-expressing BJeLR cells. BJeLR (HRASV12) viability, CellTiter-Glo ATP luminescence, 48 h; reference of the scale not given here. inhibition, % (test concentration not listed). 300,000 tested, 0.17% active;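 active means replicate mean above 50%; inconclusive means above 50% but judged a plate artefact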;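 further: 50 nL library stock added to about 25 µL; numbers are from one replicate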
# Mtb hypoxia rep – Mtb hypoxia fluorescent reporter inhibition. fluorescence inhibition, % (test concentration not listed). 300,000 tested, 0.1% active. M. tuberculosis hypoxia-regulated fluorescent reporter, fluorescence. AID 1159583;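 active means 35 to 45% if threefold the growth effect, above 45% if 1.5-fold the growth effect; inactive means the rest, general growth blockers included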;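 further: wells of about 50 µL received 100 nL stock; 0% = vehicle wells and 100% = reference inhibitor wells; whole bacteria with a GFP reporter of the hypoxia response; strong numbers were not always called active; many hits fall short of the cut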
# Mtb hypoxia rep growth – also measured in Mtb hypoxia rep; calls as there; growth inhibition, %; measured here: M. tuberculosis growth (absorbance);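 0% = vehicle and 100% = reference antibiotic; read after six days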
# * marks the source's active call; other numbers are inactive results; ? = inconclusive; · = no result given; & = joins results of further samples.
SMILES,Sa RN4220 lethal,Autofluor counter,ugtP null kill,PrP 5UTR inh,BJeLR lethal,Mtb hypoxia rep,Mtb hypoxia rep growth
COc1ccc(Cl)cc1NC(=O)CN(C)C(=O)c1cc2c(s1)CCC(C)C2 (stereo not drawn),3.2,5203,-4,-18,1,2,8
COC(=O)Nc1cccn(Cc2c(Cl)cccc2Cl)c1=O,-1.3,11264,0,-20,-10,7,6
COc1ccc(N2CCN(C(=O)c3ccc(COc4ccc5c(C)cc(=O)oc5c4)cc3)CC2)cc1,0.7,2347,3,-8,9,-3,-6
Cc1nc(NC(=O)CCN2C(=O)C3CC=CCC3C2=O)sc1C (stereo not drawn),5.1,5296,-3,-20,-2,11,2
CC1CCC(NC(=O)C2CCN(c3c4c(nc5ncnn35)CCC4)CC2)CC1 (stereo not drawn),0.2,3750,6,-24,7,17,7
CC1CCC2(CC1)NC(=O)N(CC(=O)NCCc1c[nH]c3ccccc13)C2=O (stereo not drawn),1.2,4271,-2,-9,·,23,11
Cc1ccc(OCC(=O)Nc2ccc3c(c2)OC(F)(F)O3)c([N+](=O)[O-])n1,-3.5,2102,-2,-32,4,3,4
CCSc1nc2cc(S(=O)(=O)N3CCOCC3)ccc2o1,6.2,?,8,-8,·,0,3
CC(C)[C@H](NC(=O)c1ccccc1F)C(=O)OCC(=O)Nc1sccc1C(N)=O,0.4,4102,-5,-18,·,-7,-3
CCCN(CCC)CCNC(=O)CCC(=O)Nc1ccc2nc(N3CCN(C)CC3)cc(C)c2c1,4.7,4497,1,-22,1,-4,-11
O=[N+]([O-])c1ccc(CN2CCN(c3ncccn3)CC2)cc1,-0.9,4093,1,-16,-4,-4,7
N#C/C(=C\c1c(N2CCCCCC2)nc2ccccn2c1=O)C(N)=O,6.9,3937,21,-1,2,16,3
Cc1cc(F)ccc1S(=O)(=O)N1CCCCC1CCNC(=O)C(=O)NCCN1CCOCC1 (stereo not drawn),·,?,·,-22,-16,·,·
O=C(COC(=O)/C=C/c1ccccc1)NNC(=O)c1ccccc1F,2.4,4886,-2,-37,·,-2,1
CCCCn1c(N)c(N(CCOC)C(=O)CCNC(=O)c2ccc(Cl)cc2)c(=O)[nH]c1=O,0.7,·,5,2,-1,0,-5
Cc1c(Cl)cccc1NC(=S)N1CCN(C(=O)c2ccco2)CC1,-2.9,5122,0,-42,7,2,1
CCCCn1c(=O)c(C(C)=O)c(O)c2ccccc21,7.4,3926,3,8,10,6,4
CCOc1ccc(OCCCC(=O)NCCOc2ccccc2OC)cc1,1.4,4653,11,-14,13,1,0
Cc1ccc(NC(=O)CN2CCCC2)cc1,4.5,·,8,-10,-10,16,-1
Cc1cc(NC(=O)COc2ccc(C(C)(C)C)cc2)no1,0.4,3505,-1,-20,-13,5,7
CCCn1c(SCC(=O)N2CCN(S(=O)(=O)c3ccc(Cl)cc3)CC2)n[nH]c1=O,3.8,3411,1,-20,1,5,9
O=C1C2C3C=CC(C3)C2C(=O)N1n1cnnc1 (stereo not drawn),-1.6,·,-8,·,·,-1,2
Cc1ccc(/C=C(\NC(=O)c2ccc(C)cc2)c2nc(=S)[nH][nH]2)cc1,-2.5,9954,-19,-21,4,·,·
O=C(COc1ncnc2ccccc12)NC1CCS(=O)(=O)C1 (stereo not drawn),14,4644,11,-4,3,·,·
COc1cccc(N=CC=C2OC(C)(C)C(C)(C)O2)c1,·,4753,·,-23,0,·,·
CN(CC(=O)Nc1ccc(S(=O)(=O)N2CCCC2)cc1)CC(=O)Nc1ccc(F)c(F)c1F,5.8,4218,15,-20,-32,9,3
O=c1cc(N2CCCCC2)c(-c2ccccc2)nn1Cc1ccc(Cl)cc1Cl,2.5,3660,-10,-13,3,·,·
O=C1CCCc2nc(N3CCN(C(c4ccccc4)c4ccccc4)CC3)ncc21,-3.3,4148,6,-12,-9,7,8
CC(Oc1ccccc1)C(=O)Nc1ccc(S(=O)(=O)Nc2nccs2)cc1 (stereo not drawn),6.1,4279,-2,-17,-3,7,12
Cc1ccc(S(=O)(=O)N2CCSC2=Nc2ccccc2)cc1,4.4,·,4,·,2,11,4
O=C(c1ccncc1)N1CCN(S(=O)(=O)c2ccccc2Br)CC1,4.2,3552,5,-12,·,13,2
CC(=O)c1ccc(S(=O)(=O)NC2CC(=O)N(c3ccc4c(c3)OCCO4)C2)cc1 (stereo not drawn),3.3,6141,14,-24,0,7,0
CCN(Cc1ccc(O)cc1)CC1CCCN(CCc2cccc(F)c2)C1 (stereo not drawn),3.1,4092,5,-22,9,1,2
CCN1CCCC1CNC(=O)C1c2ccccc2C(=O)N(CCOC)C1c1ccc(F)cc1 (stereo not drawn),2.6,4220,-1,-5,-13,-4,24
Cc1ccc(S(=O)(=O)N2CCOCC2)cc1NN=C(C#N)c1nc2ccccc2[nH]1,5.8,·,10,·,·,1,9
COc1ccc(CNC(=O)C(=O)NCC2OCCN2S(=O)(=O)c2ccc(F)cc2)cc1 (stereo not drawn),-0.4,?,-3,-11,-3,0,2
CCN(CC)S(=O)(=O)c1cc(C(=O)n2cccn2)c(Cl)cc1Cl,2.2,4486,5,-43,5,-6,-4
CC(C)NCC(O)COC1C2CC3CC(C2)CC1C3 (stereo not drawn),-1.0,4669,0,-8,10,-7,9
Cc1cc(S(=O)(=O)NCCCN2CCOCC2)c(C)cc1Cl,1.2,5883,5,-22,1,7,5
CN(CCCC1CCCC1)C(=O)c1cc(COc2ccc(F)c(F)c2)on1,0.3,4405,-6,-1,2,6,1
COCCn1nnnc1C(c1cc2cc(OC)ccc2[nH]c1=O)N1CCC(Cc2ccccc2)CC1 (stereo not drawn),7.1,10286,-16,-44,-1,7,10
CC(C)C(=O)Nc1nnc(SCC(=O)NC2CCCC2)s1,-0.5,4242,2,-12,6,1,-3
Cc1ccc2c(cnn2C(=O)CCCC(=O)NCc2ccc(F)cc2)c1,4.4,4134,0,-9,-1,1,1
CCOC(=O)c1c(C)[nH]c(C(=O)C(C)Sc2ccc(Cl)cc2)c1C (stereo not drawn),-0.6,3309,-13,-21,0,8,9
CN(CCCNC(=O)C1CCN(S(=O)(=O)N2CCC3(CC2)OCCO3)CC1)Cc1ccccc1,4.9,10305,-1,-16,-3,2,11

# Overlap with the part before: 7 entries, followed by the next part.
SMILES,Sa RN4220 lethal,Autofluor counter,ugtP null kill,PrP 5UTR inh,BJeLR lethal,Mtb hypoxia rep,Mtb hypoxia rep growth
Cc1cc(S(=O)(=O)NCCCN2CCOCC2)c(C)cc1Cl,1.2,5883,5,-22,1,7,5
CN(CCCC1CCCC1)C(=O)c1cc(COc2ccc(F)c(F)c2)on1,0.3,4405,-6,-1,2,6,1
COCCn1nnnc1C(c1cc2cc(OC)ccc2[nH]c1=O)N1CCC(Cc2ccccc2)CC1 (stereo not drawn),7.1,10286,-16,-44,-1,7,10
CC(C)C(=O)Nc1nnc(SCC(=O)NC2CCCC2)s1,-0.5,4242,2,-12,6,1,-3
Cc1ccc2c(cnn2C(=O)CCCC(=O)NCc2ccc(F)cc2)c1,4.4,4134,0,-9,-1,1,1
CCOC(=O)c1c(C)[nH]c(C(=O)C(C)Sc2ccc(Cl)cc2)c1C (stereo not drawn),-0.6,3309,-13,-21,0,8,9
CN(CCCNC(=O)C1CCN(S(=O)(=O)N2CCC3(CC2)OCCO3)CC1)Cc1ccccc1,4.9,10305,-1,-16,-3,2,11
Cc1cnc(=O)[nH]c1SCc1ccccc1F,1.9,6573,0,1,-3,3,0
CC1=C2CCC3C(CCC4=CC(=O)CCC43C)C2CC1 (stereo not drawn),5.9,3045,15,-10,·,13,4
Cc1ccc(C)c(OCC(=O)Nc2ccc(S(=O)(=O)Nc3onc(C)c3C)cc2)c1,4.6,3905,4,-6,-6,0,5
C=C(C)C1CCC(C)=C1CC(C)(C)/C=N\n1cnnc1 (stereo not drawn),·,8549,·,-23,-3,·,·
Cc1cccc(OCC(=O)NN=Cc2cc3c(cc2[N+](=O)[O-])OCO3)c1C,12,·,-5,·,·,1,-2
O=C(CN1CCOCCOCCOCCOCC1)Nc1ccccc1,-3.2,12808,-6,-31,-2,-5,-3
COC(=O)c1cc2oc(C)cc2n1CC(=O)Nc1cc(C)cc(C)c1,-4.5,8042,-9,-27,4,-4,3
O=C(c1c[nH]c2ccccc12)N1CCOCC1,1.5,4643,9,-25,-8,0,4
CCc1ccc[n+](-c2nc3ccccc3nc2C(=C=[N-])C#N)c1,2.1,4887,3,-22,5,14,4
Cc1ccc2nc(C)c(C(=O)N/N=C/c3cccc([N+](=O)[O-])c3)cc2c1,·,2494,·,-11,8,·,·
COc1ccc(COc2ccsc2C(=O)Nc2ccc(Cl)c(Cl)c2)cc1,1.0,10054,-14,-25,-2,9,8
CC(C)=CC1C(C(=O)Nc2ccc(S(=O)(=O)N3CCOCC3)cc2)C1(C)C (stereo not drawn),3.3,4318,15,-11,-7,2,-3
COc1cc(SC)ccc1C(=O)NCCCn1ccnc1,4.4,4084,15,-24,-2,0,10
COc1ccc(-c2onc3ccc(C(=O)/C=C/N(C)C)cc23)cc1,9.7,9723,-9,10,-5,-8,11
COc1ccc(Cc2nc(-c3ccc(-n4cccc4)cc3)no2)cc1OC,0.7,6368,6,-8,-5,·,·

# A few values from the entries so far:
# COC(=O)c1cc2oc(C)cc2n1CC(=O)Nc1cc(C)cc(C)c1 in BJeLR lethal = 4
# Cc1ccc(C)c(OCC(=O)Nc2ccc(S(=O)(=O)Nc3onc(C)c3C)cc2)c1 in ugtP null kill = 4

# Next section:
SMILES,Sa RN4220 lethal,Autofluor counter,ugtP null kill,PrP 5UTR inh,BJeLR lethal,Mtb hypoxia rep,Mtb hypoxia rep growth
O=C(CN1C(=O)c2cccc3cccc1c23)N1CCN(c2ccc(F)cc2)CC1,-4.2,3065,5,30,16,·,·
CCN(CC)C(=O)c1cn(CCC#N)nc1-c1ccc2c(c1)OCCO2,0.3,4618,3,-26,·,4,-7
COc1cccc(C(=O)Cn2c(NCCO)nc3ccccc32)c1,-12,3283,-9,-12,-6,9,5
CN(CC(=O)Nc1ccccc1Cl)C(=O)c1ccc(N2C(=O)CCC2=O)cc1,4.7,6265,7,-2,·,2,-3
Cc1cccc(OCC(=O)Nc2ccc3nc(C)sc3c2)c1,6.6,3368,3,-28,4,13,10
CN1C(=O)CSc2ccc(NC(=O)NCc3cccnc3)cc21,4.0,7900,7,-22,0,-2,3
CC1(C)C(C(=O)N2CCN(C(=O)c3ccccc3)CC2)C1(C)C,3.7,3492,1,-30,-9,-8,-1
Cc1nn(-c2ccccc2)c(N2CCCC2)c1/C=N/Nc1ccc(S(=O)(=O)Nc2ccccc2)cc1[N+](=O)[O-],·,2059,·,-28,0,·,·
CCc1cc2c(=O)oc(-c3ccc(Br)cc3)nc2s1,11,3559,1,-25,1,7,-1
Cc1c(C=NNC(=O)C2COc3ccc(C(C)(C)C)cc3O2)c2ccccc2n1C (stereo not drawn),-4.8,·,-19,·,·,-2,2
CCOCC(=O)Nc1nc(-c2ccccc2)c(CC)s1,2.9,8344,-9,-26,-5,6,0
Cc1ccc(O)c([C@H](CCN(C(C)C)C(C)C)c2ccccc2)c1,·,5808&5982,·,-14&-22,-13&0,·,·
COC(=O)COc1cccc(NC(=O)c2cccc(C)c2)c1,1.0,2153,6,-8,0,-6,5
Cc1ccc(CN2C(=O)CSC2c2ccc(F)cc2)cc1 (stereo not drawn),7.0,3842,12,-9,1,16,14
C/C(=N\NC(=O)C1CC1)c1ccccc1Br,·,5466,·,-15,7,·,·
COc1ccc(N(CC(=O)NCc2ccco2)S(=O)(=O)c2c(C)nn(C)c2C)cc1,-8.8,7433,-8,-11,0,4,6
COCC(=O)Nc1nnc(Cc2ccc(OC)cc2)s1,0.8,2471,4,-16,2,·,·
NS(=O)(=O)c1ccc(CCNC(=O)CN2C(=O)NC(c3ccccc3)(c3ccccc3)C2=O)cc1,1.3,3593,5,-18,·,-4,8
c1cncc(CNc2ncnc3sc4c(c23)CCCC4)c1,-6.0,3991,5,-23,8,6,8
CCN(CC)CCCN=Cc1c(O)n(CCc2ccc(OC)c(OC)c2)c(=O)[nH]c1=O,0.8,21750*,0,11,5,1,0
CN(C)CCCN1C(=O)c2oc3ccccc3c(=O)c2C1c1cccs1 (stereo not drawn),8.8,18317*,-2,-19,·,5,9
NS(=O)(=O)c1ccc(CCNC(=O)C(=O)NCC2OCCN2S(=O)(=O)c2cc(F)ccc2F)cc1 (stereo not drawn),-7.5,5240,-6,-15,-15,-3,11
CCOc1cccc(CN2CCC(Oc3ccc(C(=O)NCc4ccccn4)cc3)CC2)c1,2.0,6387,1,1,6,1,5
